KCNQ2 inh: KCNQ2 potassium channel inhibitors, primary screen, cell-based, CHO-K1, FluxOR thallium flux, B-score (AID 2156); 20 min; active compounds read low; only compounds with negative scores are shown here; some inactives read as strong as hits; 1.1% of 310,000 active; B-score at 10 µM; O88943;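 active = fluorescence ratio B-score at most minus 3 library SDs, with starting brightness B-score within 2 library SDs, cut at about -5.5 in these data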
Target sequence (O88943 whole entry, looked up): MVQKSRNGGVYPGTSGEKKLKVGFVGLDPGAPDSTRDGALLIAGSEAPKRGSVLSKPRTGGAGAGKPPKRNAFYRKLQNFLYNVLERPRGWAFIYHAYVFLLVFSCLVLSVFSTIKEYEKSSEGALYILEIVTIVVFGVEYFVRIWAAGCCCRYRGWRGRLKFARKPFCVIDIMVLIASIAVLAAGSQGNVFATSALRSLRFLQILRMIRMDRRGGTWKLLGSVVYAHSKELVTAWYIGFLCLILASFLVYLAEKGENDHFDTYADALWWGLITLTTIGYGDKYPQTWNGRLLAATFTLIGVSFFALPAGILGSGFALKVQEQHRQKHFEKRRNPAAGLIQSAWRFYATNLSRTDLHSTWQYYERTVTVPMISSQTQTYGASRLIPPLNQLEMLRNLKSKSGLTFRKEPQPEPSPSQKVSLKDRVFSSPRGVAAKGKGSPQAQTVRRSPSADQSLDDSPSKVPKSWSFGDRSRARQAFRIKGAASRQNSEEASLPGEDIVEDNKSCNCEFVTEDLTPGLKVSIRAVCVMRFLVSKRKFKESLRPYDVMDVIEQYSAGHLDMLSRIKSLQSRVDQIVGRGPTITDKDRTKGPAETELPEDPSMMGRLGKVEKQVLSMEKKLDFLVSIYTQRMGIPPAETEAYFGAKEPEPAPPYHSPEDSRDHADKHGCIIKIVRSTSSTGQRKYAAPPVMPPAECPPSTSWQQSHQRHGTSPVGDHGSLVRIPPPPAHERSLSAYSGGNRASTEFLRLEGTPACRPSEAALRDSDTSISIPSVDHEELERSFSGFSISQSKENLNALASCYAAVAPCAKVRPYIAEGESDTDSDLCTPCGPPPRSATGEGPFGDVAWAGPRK
KCNQ2 inh baseline: recorded beside KCNQ2 inh, whose call it bears; B-score; measured here: initial fluorescence intensity artifact check;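 brightness before thallium and not channel activity; 0 = typical well and far values either way flag optical interference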
Active calls of the source: *; i = inactive. A portion of the library; the hit share may differ from the screen's.

SMILES | KCNQ2 inh | KCNQ2 inh baseline
CCOC(=O)N1CCN(C(=O)Cn2ccc3ccccc3c2=O)CC1 | i | -1.86
O=C(NC1CCCC1)c1cc(Cl)ccc1[N+](=O)[O-] | i | -0.15
CCCCNC(=O)C1CCN(S(=O)(=O)c2c(C)noc2/C=C\c2ccc(OC)cc2)CC1 | i | -1.44
CC1=NN(C(=O)CSCc2ccccc2)C(O)(c2ccc(Cl)cc2)C1 (stereo not drawn) | i | -0.61
O=c1oc2c3c4c(cc2s1)CCCN4CCC3 | i | 3.09
CC(C)c1ccc(NC(=S)NC2CCN(Cc3ccccc3)CC2)cc1 | i | 0.42
COc1ccc(N=C2O/C(=C/c3sc(=S)n(CC4CCCO4)c3O)N=C2C#N)cc1 (stereo not drawn) | i | -0.12
CC(C)(C)Nc1nc(Oc2ccc(=O)n(-c3ccccc3)n2)nc(N2CCOCC2)n1 | i | 0.04
S=c1[nH]nc(CCc2ccccc2)n1Cc1ccccc1 | i | -0.06
CCOc1ccc(Oc2ccccc2NC(=O)C2=COCCO2)cc1 | i | -0.09
COc1ccc(N2CCN(Cc3nc(-c4ccccc4)no3)CC2)cc1 | i | 0.43
O=C(Nc1ccc([N+](=O)[O-])cc1)C1C(c2ccccc2)=C1c1ccccc1 | i | -0.56

Arranged by SMILES length (ascending): some entries from above.
SMILES | KCNQ2 inh | KCNQ2 inh baseline
CCOc1ccc(Oc2ccccc2NC(=O)C2=COCCO2)cc1 | i | -0.09
CC(C)c1ccc(NC(=S)NC2CCN(Cc3ccccc3)CC2)cc1 | i | 0.42
O=C(Nc1ccc([N+](=O)[O-])cc1)C1C(c2ccccc2)=C1c1ccccc1 | i | -0.56

Continued:
SMILES | KCNQ2 inh | KCNQ2 inh baseline
COc1ccc(S(=O)(=O)N2CCN(c3ccc4nnc(-c5ccc(F)cc5)n4n3)CC2)cc1 | i | 0.02
Cc1cccc(C(=O)NCC(c2ccco2)N(C)C)c1 (stereo not drawn) | i | 2.93
CCOc1ccc(NC(=O)COC(=O)COc2cccc3c2OC(C)(C)C3)cc1 | i | -2.65
COCCNC(=O)c1cc2sccc2n1C | i | 0.01
COc1ccc(NC(=O)CN2CCN(c3ccccc3F)CC2)cc1 | i | -0.64
O=C(NNC(=O)c1cnccc1C(F)(F)F)c1ccccc1 | i | -0.52
Cc1ccc(NC2=NCC(=O)N2CCc2ccccc2)cc1C | i | -1.15
CCOc1ncccc1C(=O)OCC(=O)NC(=O)NC(C)C | i | 7.31
O=C(Nc1ccc(N2CCOCC2)cc1)c1cnccn1 | i | -0.22
O=C(NC(=S)NCc1ccco1)c1ccccc1 | i | -0.64
O=C(Nc1cccc(C(F)(F)F)c1)c1cc(S(=O)(=O)N2CCCCC2)ccc1N1CCOCC1 | i | 0.75
CC(=O)N(C(C)=O)C1=C(C#N)C2(CCCCC2)Cc2ccccc21 | i | 1.44
COc1ccc(Cn2cnc3c4cc(F)ccc4n(C)c3c2=O)cc1 | i | 0.2
C/C(=N\NC(=O)c1ccccc1)c1ccc(N2CCCCC2)cc1 | i | 0.72
O=C(c1ccccc1)N1CCN(S(=O)(=O)N2CCOCC2)CC1 | i | -0.22
CC1CN(c2nc3c(c(=O)n(Cc4ccc(Cl)cc4)c(=O)n3C)n2C)CC(C)O1 (stereo not drawn) | i | 0.77
CC(C)NC(=O)c1cc(C(=O)c2cc(Cl)ccc2O)coc1=N | i | 0.92
O=C(NCCc1ccncc1)c1ccc2nc(Cc3cccc(Cl)c3)oc2c1 | i | -0.99
COc1ccc(CNC(=O)CN2CCC(NC(=O)c3ccccc3C)CC2)cc1 | i | -0.28
O=C(O)CCC(=O)N1N=C(c2cccs2)CC1c1ccc(Br)cc1 (stereo not drawn) | i | 1.33
Cn1nc(CC(=O)N2CCN(c3ccccc3)CC2)c2ccccc2c1=O | i | 0.7
O=[N+]([O-])C(/C=C(\Cl)[N+](=O)[O-])=C1N(Cc2ccc(Cl)nc2)CCN1Cc1ccc(Cl)nc1 | i | -0.48
COc1cccc(CNC(=O)CN2C(=O)CSc3ccc(S(=O)(=O)N4CCCCC4)cc32)c1 | i | 0.62
CC(C)c1ccc(NC(=O)c2cc(S(=O)(=O)N3CCCC3)c[nH]2)cc1 | i | 1.47
CCCCCC(=O)N1CCN(CCN=CC2=C(O)CC(c3ccc(OC)c(OC)c3)CC2=O)CC1 (stereo not drawn) | i | 1.31
Cc1cc(NC(=O)COc2ccc(F)c(Cl)c2)no1 | i | 0.89
CC1(C)CC(=O)C(CS(=O)(=O)c2ccccc2)=C(Cl)C1 | i | -1.03
CC1=CC(C)(C)N(C(=O)c2ccccc2)c2ccc(C)cc21 | i | -1.7
Cc1ccc(OCCn2cnc(Cl)c2Cl)cc1 | i | -0.48
COc1cccc(NC(=O)CN2C(=O)NC(c3ccccc3)(c3ccccc3)C2=O)c1 | i | -1.77
Cc1c(C)c2cc(Cl)c(O)c(CN3CCN(C)CC3)c2oc1=O | i | -1.17
CCOC(=O)c1c(NC(=O)CN2CCN(C(=O)C3CCCO3)CC2)sc(C)c1C (stereo not drawn) | i | -0.23
N#Cc1ccc(CSc2nnc(NC(=O)c3ccc(=O)[nH]c3)s2)cc1 | i | -1.81
CCN(CC)S(=O)(=O)c1ccc(Nc2cc(C)nc3ncnn23)cc1 | i | -0.13
CCn1c(SCC(=O)OC)nnc1-c1c[nH]c2ccccc12 | i | 0.3
Cc1ccccc1NC(=O)CSc1nc(-c2ccccc2)cc(=O)[nH]1 | i | 0.34
O=C(N/N=C/c1cc2cc3c(cc2nc1Cl)OCO3)c1ccncc1 | i | -0.07
CN1CCN(c2nc3ccccn3c(=O)c2/C=C(\C#N)S(=O)(=O)c2ccccc2)CC1 | i | 0.66
CCN(c1ccc(NC(=O)COC(=O)c2ccc(S(=O)(=O)N3CCCC3)cc2)cc1)C(C)C | i | 2.89
CCN1CCN(CC(=O)c2cc(Cl)ccc2Cl)CC1 | i | 0.3
COc1ccc(S(=O)(=O)NCC2CCCO2)cc1Cl (stereo not drawn) | i | 0.7
Cc1cc(C)c(OCC(=O)N(Cc2ccccc2)C2CCS(=O)(=O)C2)c(C)c1 (stereo not drawn) | i | -0.34
Cc1cccc(N(CC(=O)NC2CCCCC2)C(=O)c2csnn2)c1 | i | -0.68
O=c1[nH]c(CN2CCN(S(=O)(=O)c3ccc4c(c3)OCCO4)CC2)nc2sc3c(c12)CCCC3 | i | -0.53
CCc1ccc(OCC(=O)Nc2cccc3c2CCCC3)cc1 | i | -0.9
O=C(O)c1ccc2c(=O)n3c(nc2c1)/C(=C/c1ccc(Cl)c([N+](=O)[O-])c1)CC3 | i | -0.3
COc1cccc(C(=O)NCC2CCN(c3ccc(S(=O)(=O)N4CCOCC4)cc3)CC2)c1 | i | -0.61
O=S(=O)(c1ccc(N2CCN(c3ccc(F)cc3)CC2)cc1)N1CCCC1 | i | 0.14
O=C(Cc1cccs1)NCc1ccc(F)cc1 | i | 0.58
C=CCSc1nc(C)c(CC(=O)OCCCC)c(=O)[nH]1 | i | 0.25
CCOc1ccc(C(C)=O)cc1CSc1nnc(-c2cccs2)n1CC1CCCO1 (stereo not drawn) | i | -0.8
CS(=O)(=O)N1CCN(Cc2ccc(C(F)(F)F)cc2)CC1 | i | 0.36
CC[C@@H]1CC=C[C@H]2[C@H]1C(=O)N(Cc1ccccc1)[C@H]2c1ccc2ccccc2c1 | -5.65* | 0.15*
Cc1cc(F)ccc1NC(=O)c1cnccn1 | i | -1.58
CC1CCN(CCn2c(=S)[nH]c3cc4c(cc3c2=O)OCO4)CC1 | i | 1.91
CN(C(=O)COC(=O)CCC1CCCCC1)c1c(N)n(Cc2ccccc2)c(=O)[nH]c1=O | i | -1.18
CCc1c(OC(C)=O)c2ccccc2n(C)c1=O | i | 0.04
CCc1nc(-c2ccc(C)nc2OC)no1 | i | 0.35
CN(C)c1ccc(C(=O)OCc2ccccc2)cc1 | i | -1.21
Cc1ccc(NS(=O)(=O)c2cc(C(=O)NCc3cccnc3)ccc2C)cc1 | i | -0.33

Of the compounds above, 4 contain a cyano group:
SMILES | KCNQ2 inh | KCNQ2 inh baseline
COc1ccc(N=C2O/C(=C/c3sc(=S)n(CC4CCCO4)c3O)N=C2C#N)cc1 (stereo not drawn) | i | -0.12
CC(=O)N(C(C)=O)C1=C(C#N)C2(CCCCC2)Cc2ccccc21 | i | 1.44
N#Cc1ccc(CSc2nnc(NC(=O)c3ccc(=O)[nH]c3)s2)cc1 | i | -1.81
CN1CCN(c2nc3ccccn3c(=O)c2/C=C(\C#N)S(=O)(=O)c2ccccc2)CC1 | i | 0.66

Continuation.
SMILES | KCNQ2 inh | KCNQ2 inh baseline
O=C(C1=COCCO1)N1CCN(S(=O)(=O)c2cccc(Cl)c2Cl)CC1 | i | -0.57
Cc1cc(C(=O)N/N=C/C(Cl)=C/c2ccccc2)c(C)o1 | i | -0.01
CC(=O)c1ccc(NC(=S)NC(=O)/C=C/c2ccc(F)cc2)cc1 | i | 0.36
N#Cc1sc2nc(-c3cccs3)cc(-c3ccc(F)cc3)c2c1N | i | 1.37
O=C(c1cccc(F)c1)N1CCN(C(=O)c2cc3nc(-c4ccco4)cc(C(F)(F)F)n3n2)CC1 | i | -1.91
CCOC(=O)COc1ccc2c(c1)c(C(C)=O)c(C)n2-c1ccc(OC)cc1 | i | 0.97
Cc1cc(C(=O)NC2CCCc3c2cnn3-c2ccccc2F)nc(C)n1 (stereo not drawn) | i | 2.04
COc1ccc(OC)c(C2c3c(oc4ccccc4c3=O)C(=O)N2CCCN(C)C)c1 (stereo not drawn) | i | -1.08
COc1ccc(OC)c(NS(=O)(=O)c2ccc3c(c2)C(C)(C)C(=O)N3C)c1 | i | 2.14
Cc1ccc(-c2nc(CS(=O)(=O)CC(=O)N3CCc4ccccc4C3)c(C)o2)cc1 | i | 0.29
CSCCC(NS(=O)(=O)c1ccc(Cl)cc1)C(=O)OCC(=O)c1ccc(F)cc1 (stereo not drawn) | i | -0.98
CCOc1ccccc1N(CC(=O)NC1CCCCC1)S(=O)(=O)c1ccccc1 | i | 0.05
COC(=O)c1ccccc1C(=O)N(Cc1cccnc1)CC1CCCN(C2CCCCC2)C1 (stereo not drawn) | i | 0.8
COc1cnc(-c2ccccn2)nc1Sc1ccc(C)cc1 | i | 0.29
CCOC(=O)CN1C(=O)C(=O)c2cc(C)ccc21 | i | -0.26
O=C(NC1CCCC1)C(c1ccccc1)N(C(=O)c1ccco1)C1CCCC1 (stereo not drawn) | i | -1.07
O=C(CSc1nncs1)Nc1ccc(Cl)cc1C(F)(F)F | i | -0.57
CCOc1ccc(NS(=O)(=O)c2ccc3c(c2)CCN3C(=O)C2CCC2)cc1 | i | 2.23
CCOC(=O)c1ccc(NC(=O)CSC(=S)N2CCOCC2)cc1 | i | 0.54
CCOC(=O)/C(C#N)=C/c1c(N2CCN(c3ccc(OC)cc3)CC2)nc2c(C)cccn2c1=O | i | 0.88
CCCCCC(=O)Nc1ccc(C(=O)CN2C(=O)NC3(CCCCCC3)C2=O)cc1 | i | -0.32
O=C(CCn1c(=O)c2cccn2c2cccnc21)NCc1cccc(Cl)c1 | i | 0.2
O=C(NCCCN1CCOCC1)/C(=C/c1ccco1)NC(=O)c1ccccc1 | i | -0.75
O=C(NCCCn1ccnc1)c1cc(-c2cccnc2)nc2ccc(Br)cc12 | i | 1.66

Some of the entries so far, with each value named.
> CCOC(=O)/C(C#N)=C/c1c(N2CCN(c3ccc(OC)cc3)CC2)nc2c(C)cccn2c1=O
  KCNQ2 inh: i; KCNQ2 inh baseline: 0.88

> CCOC(=O)c1ccc(NC(=O)CSC(=S)N2CCOCC2)cc1
  KCNQ2 inh: i; KCNQ2 inh baseline: 0.54

> O=C(CSc1nncs1)Nc1ccc(Cl)cc1C(F)(F)F
  KCNQ2 inh: i; KCNQ2 inh baseline: -0.57

The listing continues.
SMILES | KCNQ2 inh | KCNQ2 inh baseline
COc1ccc(N2C(=O)CC(NNC(=O)c3cc(C)oc3C)C2=O)cc1 (stereo not drawn) | i | -0.84
CCc1nn(C(C)C(=O)N2CCN(c3ccc(OC)cc3)CC2)c(=O)c2cc3occc3n12 (stereo not drawn) | i | -0.94
COc1cc2ccccc2cc1C(=O)Nc1ccc(C)cc1 | i | -0.88
COc1cc(CN2CCNC(=O)C2CC(=O)N(C)CCN2CCOCC2)cc(OC)c1 (stereo not drawn) | i | 0.01
Cc1ccc(SCC(=O)NCCCN2CCOCC2)cc1 | i | 0.99
CCC(C)(C(=O)NC1CCCCC1)N(C(=O)c1ccccn1)c1ccc(C)cc1 (stereo not drawn) | i | 1.45
CCc1nnc(NC(=O)CCNC(=O)c2ccco2)s1 | i | -1.03
CCOc1cc2[nH]c(=S)n(CCN3CCCCC3CC)c(=O)c2cc1OCC (stereo not drawn) | i | 1.15
CSc1nc(C)c(C(=O)Nc2ccccc2)c(C)c1C#N | i | 0.6
CC(=O)c1ccc(N2CCN(C(=O)c3noc4c3CSc3ccccc3-4)CC2)cc1 | i | 0.89
CC[C@H]1OC(=O)[C@H](C)[C@@H](O[C@H]2C[C@@](C)(OC)[C@@H](O)[C@H](C)O2)[C@H](C)[C@@H](O[C@@H]2O[C@H](C)C[C@H](N(C)C)[C@H]2O)[C@](C)(O)C[C@@H](C)CN(C)[C@H](C)[C@@H](O)[C@]1(C)O | i | -0.72
COc1ccc(CC(=O)N2CCNC2=O)cc1 | i | 0.15
Cc1cccc(-n2ccc(=O)c(C(=O)Nc3ccc(S(=O)(=O)Nc4nccc(C)n4)cc3)n2)c1 | i | 0.38
Cc1nn(C)c(C)c1S(=O)(=O)N1CCCC(C(=O)NC2CCCCC2)C1 (stereo not drawn) | i | 0.45
O=C(COc1ccc2c(c1)OCO2)Nc1ccc(Cl)cn1 | i | -0.94
O=c1cc(CSc2ccc(Cl)cc2)[nH]c2[nH]n(-c3ccccc3)c(=O)c12 | i | -1.06
Cc1cc(SCC#N)n2nc(C)c(-c3ccccc3)c2n1 | i | 0.39
O=C(CNC(=O)c1ccc(Br)o1)NCC(=O)OCc1ccccc1 | i | 1.71

From PubChem
